HCMV NEC inh = disrupts HCMV UL50-UL53 complex binding; inhibition, % (no concentration beside the values); actives 0.15% (n = 190,000); HTRF UL50-UL53 interaction, normalized percent inhibition;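 active = both replicates at 50% or more, plus weaker picks with an unusually low signal ratio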;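 also: stock transfer was 100 nL into about 20 µL; 0% = negative control wells and 100% = wells with untagged competitor protein; inactives centre near -12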
Sa growth inh = S. aureus growth inhibition; S. aureus RN4220 growth, OD600, 20 h, 42 °C; hits give low values; relative growth, % (concentration not given with the values); actives 0.53% (n = 170,000); AID 720641;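 active = growth at 42 °C up to 50% and 20 or more points under that at 30 °C, or under 10% at both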;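 also: 300 nL library stock went into each well; scaled to the means of positive and negative controls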
GIV Gai3 FP = GIV-Galpha-i interaction inhibition. P08753. Galpha-i3/FITC-GIV peptide fluorescence polarization, 90 min; hits give low values; scaled: aluminum fluoride 0%, vehicle 100%. percent of control (FP), % (no concentration beside the values). actives 0.42% (n = 210,000);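 active = replicate mean at 85% of control or lower, very high polarization wells dropped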;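 also: wells of about 15 µL received 100 nL stock; the first replicate is given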
Target sequence (P08753 whole entry, looked up): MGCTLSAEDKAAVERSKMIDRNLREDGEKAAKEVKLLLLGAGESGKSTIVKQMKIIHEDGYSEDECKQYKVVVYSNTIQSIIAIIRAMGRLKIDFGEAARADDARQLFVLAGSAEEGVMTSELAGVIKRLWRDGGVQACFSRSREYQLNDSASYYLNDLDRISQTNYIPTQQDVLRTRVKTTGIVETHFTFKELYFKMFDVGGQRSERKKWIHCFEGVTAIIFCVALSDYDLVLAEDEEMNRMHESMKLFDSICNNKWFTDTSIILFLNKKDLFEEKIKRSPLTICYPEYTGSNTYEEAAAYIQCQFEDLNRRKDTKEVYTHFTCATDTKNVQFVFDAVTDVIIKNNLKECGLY
Sa growth inh second temp = recorded beside Sa growth inh, whose call it bears; relative growth, %; measured here: growth at 30 °C;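 optical density after 20 h as mean of two plates; 100% = untreated growth and lower means inhibition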
* marks the source's active call; other numbers are inactive results; · = not tested or not shown; & = joins results of further samples.

SMILES | HCMV NEC inh | Sa growth inh | Sa growth inh second temp | GIV Gai3 FP
O=C(CC(c1ccc(F)cc1)N1Cc2ccccc2C1=O)NCc1ccco1 (stereo not drawn) | -36 | 101 | 85 | 103
OC(COc1cccc(C(F)(F)F)c1)CN1CCN(c2nc(-c3ccccc3)ns2)CC1 (stereo not drawn) | -13 | 90 | 55 | 100
O=C(Nc1ccc(-c2noc(C3CCC3)n2)cc1)NC1CC1 | -4 | · | · | 102
Cc1ccc(C2C(Cc3ccccc3)N3C=Cc4ccccc4C3C2(C#N)C(N)=O)c(C)c1 (stereo not drawn) | -32 | 114 | 89 | ·
Cc1c(NC(=O)CCN2C(=O)/C(=C\c3ccc(F)cc3)SC2=S)c(=O)n(-c2ccccc2)n1C | -21 | · | · | 106
CCOC(=O)c1noc2ncnc(Nc3cc(Cl)c(OC)cc3OC)c12 | · | 92 | 95 | 104
CCOc1ccc(NC(=O)CC2C(=O)N(c3cccc(C)c3)C(=O)N2Cc2cccs2)cc1 (stereo not drawn) | · | 112 | 84 | 107
Cc1ccc(-c2nc3nc(C)cc(Nc4ccccc4O)n3n2)cc1 | · | 73 | 85 | 106
COc1cccc(-n2c(=O)c3sccc3n(CC(=O)NCC3CCCO3)c2=O)c1 (stereo not drawn) | -5 | 87 | 89 | 103
Clc1cc(N2CCSCC2)ncn1 | 0 | · | · | 107
COc1nccc(C(F)(F)F)c1C(=O)Nc1c(C)cccc1C | -4 | 116 | 94 | 98
COc1cccc(-c2noc(C3CC(=O)N(c4ccc(F)cc4)C3)n2)c1OC (stereo not drawn) | · | 86 | 82 | 97
Cn1c(C2=C(O)CN(c3ccccc3Cl)C2=N)nc2ccccc21 | -4 | · | · | 103
Oc1ccc(CNC2CCN(Cc3ccccc3)C2)cc1 (stereo not drawn) | -14 | 103 | 90 | ·
N/C(=N\S(=O)(=O)c1cc(C(F)(F)F)cc(C(F)(F)F)c1)c1ccncc1 | -22 | 84 | 89 | 101
Cc1ccc(-c2nc3c4c(C)c(C)n(Cc5ccncc5)c4ncn3n2)cc1 | -26 | · | · | 108
CC(C(=O)Nc1ccc(Br)c(Cl)c1)N1C(=O)C2C3C=CC(C3)C2C1=O (stereo not drawn) | -8 | 113 | 95 | 104
c1ccc(C2CC(c3ccccc3)n3ncnc3N2)cc1 (stereo not drawn) | -10 | 98 | 74 | ·
Cc1nn(C(C)C(=O)N2CCC(C)CC2)c(=O)c2cc3sccc3n12 (stereo not drawn) | -10 | · | · | 98
COc1ccc(CCNC(=O)Cn2nc(-c3ccccc3)c3cc(Cl)ccc32)cc1OC | 5 | · | · | 101
Cn1ccnc1SCC(O)c1ccccc1 (stereo not drawn) | -7 | 97 | 91 | 103
COc1ccc(-c2noc(C(C)NC(C)=O)n2)cc1 (stereo not drawn) | -11 | · | · | 101
COc1ccc(CC(C)Nc2ccc3c(c2)OCO3)cc1 (stereo not drawn) | -12 | 96 | 107 | 124
Cc1ccccc1NC(=O)NCCCn1c(-c2ccncc2)nc2cccnc21 | -10 | · | · | 106
COc1cc(NC(=O)c2cc(Cl)ccc2Cl)ccc1NC(=O)c1cc2ccccc2o1 | -22 | 109 | 93 | 106
CC(Oc1ncnc2ccccc12)C(=O)Nc1cc(Cl)cc(Cl)c1 (stereo not drawn) | -6 | 104 | 86 | ·
CC(Oc1ccc(F)cc1)C(=O)Nc1nc(-c2ccc(F)cc2)ns1 (stereo not drawn) | -28 | 2.3* | -1.0* | 99
COc1cc(-c2nc(-c3ccc4c(c3)[nH]c(=O)n4C)no2)cc(OC)c1OC | · | 104 | 89 | 106
COc1ccc2c(C)nc(N/C(N)=N/S(=O)(=O)c3ccc(C)cc3)nc2c1 | · | 98 | 79 | 109
NC(=O)c1ccc(-c2ccccc2)cc1C(N)=O | -28 | 95 | 87 | 102
CCc1nnc(SC(CC)C(=O)Nc2cccc(OC)c2)c2cc3oc(C)cc3n12 (stereo not drawn) | · | 111 | 94 | 107
CCc1ccccc1NC(=O)NCc1ccccc1OC | 4 | 97 | 98 | 98
Cc1cc(NNC(=O)c2ccc(Cl)cc2)nc2c1c(C)nn2C | -12 | 104 | 97 | 107
CN1C[C@H](C(=O)N[C@]2(C)O[C@@]3(O)[C@@H]4CCCN4C(=O)[C@H](Cc4ccccc4)N3C2=O)CC2c3cccc4[nH]cc(c34)C[C@H]21 (stereo partly drawn) | -34&0 | 94 | 82 | 103
c1ccc2c(c1)C(=Nn1cnnc1)c1ccccc1-2 | -75 | 110 | 94 | ·
CNCC(=O)Nc1cccc2ccccc12 | -26 | 99 | 90 | ·
CCOC(=O)c1nc(Nc2cc(Cl)ccc2OC)c2ccccc2n1 | -6 | · | · | 100
O=C(NCCc1ccccc1)C(=O)NCC(c1ccco1)S(=O)(=O)c1cccs1 (stereo not drawn) | · | 128 | 72 | 94
CCOC(=O)c1ccccc1NC(=O)c1cc2c(s1)-c1c(C)cccc1OC2 | -17 | 86 | 103 | 111
COc1ccc(NC(=O)N2CCN(c3ccc(=O)n(-c4ccccc4)n3)CC2)cc1 | -47 | · | · | 102
Cc1ccc(C)c(NC(c2ccccc2)c2nnc(-c3ccccc3F)o2)c1 (stereo not drawn) | -1 | 95 | 84 | 103
O=C(NCCc1ccccc1)c1ccc2ncccc2c1 | -4 | 99 | 80 | 96
CC1CCC(NC(=O)C2(C)Cc3ccccc3C(=O)N2Cc2ccc(Cl)cc2)CC1 (stereo not drawn) | -32 | 107 | 86 | 103
CC(=O)NC1C(=O)SC1(C)C (stereo not drawn) | · | 111 | 101 | 99
O/N=C/c1cn(-c2ccccc2)nc1-c1ccccc1 | -34 | 94 | 86 | 102
CC1CCc2c(sc3ncnc(SCC#N)c23)C1 (stereo not drawn) | -15 | 73 | 97 | ·
CCOc1ccc(S(=O)(=O)Nc2ccc(OC)c(Cl)c2)c2cccnc12 | -10 | 85 | 73 | 99
CCc1ccc(NC(=O)C(CC)CC)cc1 | 0 | 104 | 98 | 102
C/C(CC1(O)C(=O)Nc2ccccc21)=N\O (stereo not drawn) | 8 | 79 | 93 | ·
CCOC(=O)CSc1nc2ccsc2c(=O)n1Cc1ccccc1 | 9 | 92 | 81 | 96
Cc1[nH]c(C)c(S(=O)(=O)N2CCC(C(=O)NC3CCCCC3)CC2)c1C(=O)N1CCCC1 | 16 | · | · | 104
CCc1cccc(C)c1NC(=O)c1ccc2c(c1)CCN2S(=O)(=O)c1ccc(Cl)cc1 | -31 | 91 | 94 | 105
O=C(Nc1nc2ccccc2n1CCN1CCOCC1)C1CCCCC1 | · | 117 | 86 | 99
N#CC1(NC(=O)COC(=O)c2ccc3c(c2)CCCC3)CCCCC1 | 12 | 93 | 93 | ·
Cc1ccccc1Oc1ncnc2sc3c(c12)CCCC3 | -3 | 40 | 48 | ·
COc1ccc(N(C(=O)c2ccco2)S(=O)(=O)c2ccccc2)cc1 | 0 | 113 | 96 | 104
Cc1ccc(NC(=O)c2ccc(C#N)cc2)cc1 | -20 | 92 | 81 | 94
COc1ccc(Br)cc1CNC(=O)c1cc2oc3ccccc3c2n1C | -5 | 103 | 96 | 100
CCC(=O)N1CCN(c2nc(-c3ccccc3)c3c(c2C#N)CCCC3)CC1 | -6 | 44 | 39 | 100
Cn1c(NCc2c(O)ccc3ccccc23)nc2ccccc21 | -8 | 110 | 94 | 105

In a second layout: results already given.
smiles	HCMV NEC inh	Sa growth inh	Sa growth inh second temp	GIV Gai3 FP
O/N=C/c1cn(-c2ccccc2)nc1-c1ccccc1	-34	94	86	102
c1ccc2c(c1)C(=Nn1cnnc1)c1ccccc1-2	-75	110	94	·
Cn1ccnc1SCC(O)c1ccccc1 (stereo not drawn)	-7	97	91	103
Oc1ccc(CNC2CCN(Cc3ccccc3)C2)cc1 (stereo not drawn)	-14	103	90	·

(list continues)
SMILES | HCMV NEC inh | Sa growth inh | Sa growth inh second temp | GIV Gai3 FP
O=C(NCc1cccnc1)C(=O)c1c(O)[nH]c2ccccc12 | 10 | 99 | 100 | ·
Cc1ccc(Cl)cc1N1CCN(C(=O)c2[nH]c(C)c(S(=O)(=O)N3CCC(C)CC3)c2C)CC1 | -30 | · | · | 104
COc1ccc(-c2cc(C(F)(F)F)nc(-n3nc(C(F)(F)F)cc3C)n2)cc1 | 11 | 99 | 88 | 108
CCC1(CC)Cc2ccccc2-c2nc3[nH][nH]c(=S)n3c(=O)c21 | · | 87 | 84 | 98
O=C(NC1CCCCC1)c1cccnc1Nc1ccccc1F | -34 | 87 | 106 | 99
COc1cccc(-n2c3c(c(SCc4ccc(F)cc4)nc2=O)CCC3)c1 | -14 | · | · | 98
O=C(Cn1c(C(F)(F)F)nc2ccccc21)Nc1ccc(S(=O)(=O)NCc2ccco2)cc1 | -2 | 93 | 87 | ·
O=C(Nc1c(Cl)cccc1Cl)c1cc(-c2cccc(O)c2)on1 | 7 | 95 | 104 | 113
Cc1ccc(C(=O)NCc2ccccc2F)s1 | -6 | 109 | 95 | ·
O=C1OC2(c3ccccc3)C3CCCC2C13Sc1ccccc1 | -11 | 92 | 62 | ·
O=C(O)Cc1cc(=O)oc2c1ccc1ccccc12 | -30&-44 | 80 | 80 | 103
O=C(C(O)C(O)C(=O)N1CCCC1)N1CCCC1 (stereo not drawn) | 4 | 92 | 89 | 100
Cc1ccc(O)c(NC(=O)c2cc(C)no2)c1 | -37 | · | · | 99
CCNC(=O)CC1C(=O)N(c2ccccc2)C(=O)N1CCC(C)C (stereo not drawn) | -19 | 94 | 83 | 95
O=C(CN1C(=O)c2cccnc2Oc2ccc(Cl)cc21)N1CCc2ccccc21 | · | 82 | 73 | 100
CC(C)C(=O)Nc1cccc(C(=O)Nc2nncs2)c1 | 7 | 99 | 80 | 98
CCOc1ccc(S(=O)(=O)c2cn(Cc3ccc(C)cc3)c3ccc(OC)cc3c2=O)cc1 | 7 | 85 | 93 | 108
Cc1ccc(S(=O)(=O)Nc2cc3c(cc2N2CCCCC2)n(C)c(=O)c(=O)n3C)cc1 | -20 | · | · | 103
COc1cc2nc(COc3ccccc3)oc(=O)c2cc1OC | · | 110 | 81 | 102
N#Cc1c(/N=C/c2c(F)cccc2Cl)oc(-c2ccco2)c1-c1ccco1 | -36 | 44 | 46 | ·

Limited to HCMV NEC inh and GIV Gai3 FP, for six of the compounds above:
mol	HCMV NEC inh	GIV Gai3 FP
O=C(CN1C(=O)c2cccnc2Oc2ccc(Cl)cc21)N1CCc2ccccc21	·	100
CC(C)C(=O)Nc1cccc(C(=O)Nc2nncs2)c1	7	98
CCOc1ccc(S(=O)(=O)c2cn(Cc3ccc(C)cc3)c3ccc(OC)cc3c2=O)cc1	7	108
Cc1ccc(S(=O)(=O)Nc2cc3c(cc2N2CCCCC2)n(C)c(=O)c(=O)n3C)cc1	-20	103
COc1cc2nc(COc3ccccc3)oc(=O)c2cc1OC	·	102
N#Cc1c(/N=C/c2c(F)cccc2Cl)oc(-c2ccco2)c1-c1ccco1	-36	·

(list continues)
SMILES | HCMV NEC inh | Sa growth inh | Sa growth inh second temp | GIV Gai3 FP
COc1ccc2[nH]c3c(c2c1)CCNC3=O | -23 | · | · | 99
Cn1c(=O)c2c(ncn2CCC(=O)NC2CCCCCCC2)n(C)c1=O | · | 82 | 81 | 101
O=C1OC2(CCCC2)OC(=O)C1=Cc1ccc(Br)cc1 | · | 106 | 83 | 91
COc1ccc(-c2cc(C)no2)cc1S(=O)(=O)Nc1cccnc1 | 0 | · | · | 102
Cc1ccccc1C1Nc2ccccc2NC2=C1C(=O)CC(c1ccccc1)C2 (stereo not drawn) | -13 | · | · | 97
CCOc1ccc(-c2cc3nc(C4CCN(C(=O)OC(C)(C)C)CC4)c(C(=O)Nc4cccc(Cl)c4C)cn3n2)cc1 | -13 | 111 | 82 | 107
CCCn1c2ccccc2c2cnn(CC(=O)NCc3ccc(OC)cc3)c(=O)c21 | · | 98 | 85 | 103
O=c1cc(CSc2ccc(Cl)cc2)nc(N2CCCCC2)[nH]1 | -3 | 87 | 98 | 108
Cc1ccc(CNS(=O)(=O)c2cc(C(=O)Nc3cccc(C(F)(F)F)c3)ccc2F)cc1 | · | 96 | 96 | 109
COCCn1c(=O)[nH]c2cc(C(=O)N3CCN(c4ccc(F)cc4)CC3)ccc2c1=O | -8 | 102 | 88 | 105
CCN(CC)C(=S)Nc1ccc(Cl)c(Cl)c1 | -5 | 106 | 89 | 105
Cc1ccccc1NC(=O)CSc1nc2c(c(=O)n(C)c(=O)n2C)n1Cc1ccccc1F | -10 | 115 | 92 | 105
O=S(=O)(Nc1ccc(C2=NCCO2)cc1)c1ccccc1 | -1 | 101 | 97 | 100
Cc1noc(C)c1C(=O)O | 2 | 99 | 94 | 105
O=C(Nc1ccccc1C(=O)NCCCN1CCOCC1)c1ccco1 | -10 | 111 | 88 | 98
O=c1c2ccccc2nc(SCc2nnc(-c3ccccc3)o2)n1CCc1ccccc1 | -4 | 102 | 93 | 109
COc1ccc(CNC(=O)Cc2c(C)c3c(cc(C)c4c(C)coc43)oc2=O)cc1 | -38 | 110 | 82 | 98
CC(=O)N1CCC2(CC1)CC(=O)c1cc(OCC(=O)NCc3ccco3)ccc1O2 | -47 | 88 | 84 | 103

Looked up by compound from the list above (3):
SMILES | HCMV NEC inh | Sa growth inh | Sa growth inh second temp | GIV Gai3 FP
COc1ccc(CNC(=O)Cc2c(C)c3c(cc(C)c4c(C)coc43)oc2=O)cc1 | -38 | 110 | 82 | 98
Cn1c(=O)c2c(ncn2CCC(=O)NC2CCCCCCC2)n(C)c1=O | · | 82 | 81 | 101
O=C(Nc1ccccc1C(=O)NCCCN1CCOCC1)c1ccco1 | -10 | 111 | 88 | 98

Assay outcomes as filed in PubChem BioAssay.
